# High-throughput results (PubChem BioAssay)
# Hsc70: small molecules displacing fluorescent ligand from Hsc70 – biochemical, fluorescence polarization, primary screen (AID 568) | Hsc70 fluorescence polarization, probe displacement; higher % means a stronger effect; strong numbers were not always called active | 83,000 tested, under 10 active | displacement, % at 20 µM; hits with a dose series show IC50 in µM;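 active = displacement above 50% without optical interference and an IC50 on retest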;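 note: ATPase domain with a fluorescein-tagged ATP probe; 0% = vehicle and 100% = excess ADP; read after one hour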
# WNV protease inh: inhibitors of West Nile virus NS2B-NS3 protease | WNV NS2B-NS3 protease, fluorogenic substrate Ex360/Em465; hits give low values | z-score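 (tested at a level between 10 and 100 µM)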 | P06935 | 65,000 tested, 0.18% active;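 active = z-score at -3 or under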;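 note: score is relative to mean and spread of the compound wells of a plate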
# Target sequence (P06935 1371-1501 limits assumed): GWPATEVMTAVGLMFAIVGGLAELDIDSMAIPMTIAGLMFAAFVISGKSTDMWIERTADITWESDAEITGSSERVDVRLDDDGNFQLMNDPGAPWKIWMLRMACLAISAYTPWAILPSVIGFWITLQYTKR
# Target sequence (P06935 1502-1679 limits assumed): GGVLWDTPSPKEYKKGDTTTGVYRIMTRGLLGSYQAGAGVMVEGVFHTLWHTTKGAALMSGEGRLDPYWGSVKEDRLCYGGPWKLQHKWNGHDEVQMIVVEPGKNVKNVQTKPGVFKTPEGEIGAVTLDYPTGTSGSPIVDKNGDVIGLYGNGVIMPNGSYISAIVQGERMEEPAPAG
# MT1-MMP reporter: inhibitors of MT1-MMP promoter transcription, cell-based, luciferase reporter, luminescence (AID 618); MT1-MMP promoter luciferase reporter cells, luminescence; calls from a first round at 10 µM; hits with a dose series show EC50 in µM; 87,000 tested, 0.62% active;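 active = over half of the reporter light lost at 10 µM or EC50 under 50 µM; inactive = the rest and hits that failed the dose series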;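 note: actives suppress MT1-MMP promoter-driven transcription so potencies describe inhibitors; HT1080 fibrosarcoma cells; overnight exposure; toxic or luciferase-blocking compounds were not removed from the actives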
# * = called active by the depositor; i = inactive; nt = no result given.
mol	Hsc70	WNV protease inh	MT1-MMP reporter
Cc1nnc(SCC(=O)Nc2ccccc2)[nH]c1=O	1.6%	nt	i
O=c1[nH]cnc2sc3c(c12)CCCC3	0.3%	-0.65	i
CN(CC(=O)Nc1ccc2c(c1)OCCO2)S(=O)(=O)c1ccc(Br)s1	1.4%	-0.45	i
N#Cc1c(NCCN)nc(NCc2ccccc2)c2c1CCN(Cc1ccccc1)C2	-10.7%	-0.74	i
CC(C)(C)c1nnc2sc(SCC(=O)c3ccc(Cl)cc3)nn2c1=O	9.3%	nt	i
CC#CCCC(=O)N1C=Cc2ccccc2C1C#N (stereo unspecified)	-4.4%	0.55	i
Cc1nn(S(=O)(=O)N2CCCCC2)c(C)c1Br	3.0%	-0.24	i
O=C(C1=C(O)C(=O)N(Cc2ccco2)C1c1cccnc1)c1cc2ccccc2o1 (stereo unspecified)	-6.6%	-0.22	i
COc1ccc(CN2C(=O)CN=C2Nc2cccc(C)c2C)cc1	6.0%	0.01	i
COc1cccc(C2CC(c3ccccc3)Nc3ncnn32)c1 (stereo unspecified)	5.6%	0.55	i

# (listing goes on)
mol	Hsc70	WNV protease inh	MT1-MMP reporter
CC(=O)c1ccc(N=Cc2c(O)n(-c3cc(Cl)ccc3N3CCOCC3)c(=O)c3ccccc23)cc1	-9.8%	nt	i
Cc1c(Cl)cccc1NC(=O)c1cc(C2CC2)on1	1.6%	-0.59	i
Cc1ccccc1-c1nc(CS(=O)(=O)CC(=O)Nc2cc(F)ccc2F)c(C)o1	3.9%	-0.25	i
Cc1ccc(S(=O)(=O)NC2CCCC(C(=O)O)C2)cc1 (stereo unspecified)	8.7%	0.78	i
CNC(=O)c1cc2c(ccc3ccccc32)oc1=N	12.4%	2.14	i
O=C(CSc1nc(NS(=O)(=O)c2ccccc2)cc(=O)[nH]1)Nc1ccc(F)cc1	-6.2%	-0.53	i
Cn1c(NCc2cccs2)nc2ccccc21	1.2%	-0.49	i
COc1ccc(/C(O)=C2/C(=O)C(=O)N(Cc3cccnc3)C2c2ccncc2)cc1F (stereo unspecified)	-3.1%	-0.56	i
Cc1cccc(-n2nnc(C(=O)NC3CCCc4ccccc43)c2N)c1 (stereo unspecified)	-5.4%	-0.35	i
CC(C)c1ccc(OCC(=O)NCc2ccco2)cc1	0.5%	-1.23	i

# Other compounds
mol	Hsc70	WNV protease inh	MT1-MMP reporter
O=Cc1ccc(-c2ccccc2OC(F)(F)F)o1	-5.5%	nt	i
CCOC(=O)c1ccc(Oc2c(C)oc3c(CN4CCN(C)CC4)c(O)ccc3c2=O)cc1	2.5%	2.1	i
c1csc(-c2nnc3ccccn23)c1	8.7%	-1.36	i
Cc1cc2ncn(S(=O)(=O)N3CCOCC3)c2cc1C	-5.8%	0.86	i
CCCOc1ccc(Cl)cc1CN1CCOCC1	5.5%	0.01	i
CCCN1C(=O)C(NC(C)=O)c2cc(OC)ccc21 (stereo unspecified)	2.0%	1.74	i
Cc1c(N=Cc2ccc(-c3ccc(Cl)cc3)o2)c(=O)n(-c2ccccc2)n1C	-3.2%	-0.96	i
COC(=O)COc1ccc(Oc2nc(SC)nc(N(C)C)n2)nn1	-2.5%	0.18	i
O=S(=O)(N/N=C1\CC(c2ccccc2)Oc2ccccc21)c1ccccc1 (stereo unspecified)	-3.1%	nt	i
CC(=O)c1nn(-c2cccc(Br)c2)cc1C(=O)c1ccco1	-5.0%	nt	i

# Continuation:
mol	Hsc70	WNV protease inh	MT1-MMP reporter
CCN1CCN(c2nc(C)c3c(n2)CCCC3=O)CC1	8.2%	nt	i
O=C(Cn1cnc2c(nnn2Cc2ccc(F)cc2)c1=O)OCc1ccccc1	0.7%	-1.26	i
Nc1cc2c(cc1C(=O)c1ccccc1)OCCO2	-1.1%	nt	i
N#CCc1nnc2n1-c1ccccc1CCC2	3.8%	0.41	i
N#CC1=C(N)OC2=C(C(=O)CCC2)C12C(=O)N1CCCc3cccc2c31 (stereo unspecified)	-3.2%	nt	i
Cc1cccc2cc(CN(Cc3ccco3)C(=O)N3CCCC3)c(=O)[nH]c12	-4.7%	0.3	i
CCn1c(SCC(=O)Nc2nonc2C)nnc1-c1ccco1	-1.1%	1.3	i
O=C(CSc1nc(O)cc(=O)[nH]1)Nc1ccc2c(c1)CCC2	3.3%	0.58	i
COC(=O)CCc1nc2ccccc2[nH]c1=O	4.7%	-0.11	i
Clc1ccccc1Cn1nnc2c(N3CCCC3)ncnc21	-6.7%	-0.06	i

# (further entries)
SMILES | Hsc70 | WNV protease inh | MT1-MMP reporter
COc1cccc(-c2cc(C(F)(F)F)nc(-n3cccn3)n2)c1 | -3.8% | nt | i
Cc1cc(C(=O)NCCN2CCCCC2C)n(-c2ccccc2)n1 (stereo unspecified) | 7.8% | 0.42 | i
CCOC(=O)C1CCN(S(=O)(=O)c2ccc(OC)c(Cl)c2Cl)CC1 | -1.9% | nt | i
COc1ccc(CN2CCN(C(=O)CC(C)C)CC2)c(OC)c1OC | 1.8% | -0.13 | i
Cc1cc(N2CC34C=CC(O3)C(C(=O)O)C4C2=O)no1 (stereo unspecified) | 2.5% | 1.01 | i
COc1cccc(OC)c1C(=O)N1CCN(S(=O)(=O)c2ccccc2)CC1 | 3.2% | -0.57 | i
Cc1nc2ccc(NC(=O)N3CCC(c4ccccc4)C3)cc2nc1C (stereo unspecified) | 1.2% | 0.22 | i
Cc1nnc(NC(=O)c2oc3c(ccc4ccccc43)c2C)s1 | -2.2% | nt | i
CCOC(=O)c1c(CN2CCN(c3ccccc3)CC2)oc2ccc(O)cc12 | -1.0% | -0.06 | i
CC(=O)NC(=O)Nc1sc(=S)n(C)c1C | 3.1% | -0.38 | i

# Later entries.
SMILES | Hsc70 | WNV protease inh | MT1-MMP reporter
COc1ccccc1NC(C)=O | 2.0% | nt | i
CC(=O)c1ccccc1NC(=O)CSc1nnc2ccccn12 | 3.2% | nt | i
Cc1ccc(/C=c2/sc3nnc(-c4ccccc4Cl)n3c2=O)o1 | -18.8% | -0.07 | i
CN(C)c1ccnc2sc3c(=O)n(Cc4ccccc4)cnc3c12 | -4.8% | 1.27 | i
Cc1cc(/C([O-])=C(/C(=S)Nc2ccc(F)cc2)[n+]2ccccc2)c(C)n1-c1ccc(F)cc1 | -1.2% | nt | i
CCOC(=O)c1cc2c(=O)n3ccccc3nc2n(Cc2ccco2)c1=NC(=O)c1cccnc1 | 1.0% | 1.86 | i
CC1CN(CC(=O)c2c(N)n(Cc3ccccc3)c(=O)n(C)c2=O)CC(C)O1 (stereo unspecified) | 1.5% | nt | i
O=C(NCc1ccc2c(c1)OCO2)c1cc(-n2cnnc2)ccc1Cl | -6.6% | 0.18 | i
Cc1nn2c(-c3ccc(Cl)cc3)nnc2s1 | 2.5% | 0.4 | i
Nc1nc(SCC(=O)Nc2ccc(Br)cc2F)n[nH]1 | 2.6% | -0.63 | i

# More results follow.
SMILES | Hsc70 | WNV protease inh | MT1-MMP reporter
CCOC(=O)C1C2C=CC3(CN(C4CCCC4)C(=O)C13)O2 (stereo unspecified) | 3.7% | 0.72 | i
COC(=O)C(O)(CC(=O)Nc1ccc(OC)cc1)C(F)(F)F (stereo unspecified) | 4.0% | nt | i
CCOC(=O)Cc1nnc(NC(=O)Nc2ccccc2)s1 | 0.1% | 0.27 | i
COc1ccc(C(C)(C)C)cc1NC(=O)c1c(C)noc1C | 1.7% | -0.35 | i
O=C(CCCN1C(=O)c2ccccc2C1=O)Nc1sc2c(c1C(=O)NCc1ccco1)CCC2 | -8.1% | -0.11 | i
O=C(CCCCCn1c(SCc2ccncc2)nc2ccccc2c1=O)NCc1ccco1 | 5.3% | -0.36 | i
Cc1nn(-c2nc3ccccc3s2)c(C)c1Oc1ccccc1O | -0.7% | -1.59 | i
O=C(NC1CCCC1)c1ccc(CN2CCOCC2)cc1 | 3.5% | nt | i
COc1ccccc1N(C(=O)c1snc(C(N)=O)c1N)C(C(=O)NCCC(C)C)c1ccco1 (stereo unspecified) | -6.4% | 1.01 | i
COC(=O)c1cc(NC(=O)c2ccc(Cn3cc(Cl)cn3)o2)cc(C(=O)OC)c1 | -3.8% | -0.18 | i

# Next part
SMILES | Hsc70 | WNV protease inh | MT1-MMP reporter
CC1CCCN(C(=O)Nc2cccc(NC(=O)N3CCCC(C)C3C)c2)C1C (stereo unspecified) | 2.0% | -1.38 | i
CCOc1ccc(C(=O)NC2CCN(S(C)(=O)=O)CC2)cc1 | 0.2% | -1.15 | i
COc1ccc(S(=O)(=O)N2CCCC2C(=O)Nc2ccc(O)cc2)cc1 (stereo unspecified) | -1.8% | -1.01 | i
Clc1ccc(-n2cnnn2)cc1 | 5.0% | -1.3 | i
O=C(CSc1nnc([C@@H]2CCCN2)o1)c1ccc(Cl)cc1 | 0.8% | 0.04 | i
COc1cccc(-c2nc(CS(=O)(=O)CC(=O)N3CCN(c4ccccn4)CC3)c(C)o2)c1 | 0.7% | -0.29 | i
COc1ccc(Oc2nc3c(c(=O)n(C)c(=O)n3C)n2Cc2ccccc2)cc1 | -0.1% | nt | i
Cc1noc(/C=C/N(C)C)c1S(=O)(=O)N1CCc2ccccc21 | 2.2% | -0.11 | i
C=CCn1c(SCC(=O)NC2CCCC2)nc2scc(-c3ccco3)c2c1=O | -26.6% | -0.03 | i
COC(=O)c1ccccc1NC(=O)Cn1c(SC)c(F)cnc1=O | -1.0% | -0.84 | i

# (further entries)
SMILES | Hsc70 | WNV protease inh | MT1-MMP reporter
Cc1c(Br)cc(C(=O)OC2CCN(C)CC2)c(C)c1C | 1.9% | 0.22 | i
COC(=O)CN1C(=O)C(O)(CC(=O)c2cccc(Br)c2)c2ccccc21 (stereo unspecified) | -1.0% | -0.95 | i
CCN1C(=O)CC(N2CCN(c3ccc(C(=O)c4ccccc4)cc3)CC2)C1=O (stereo unspecified) | -2.3% | -1.61 | i
CCc1c(C(=O)NCCc2ccc(OC)c(OC)c2)[nH]c(C)c1C(C)=O | -1.0% | -0.24 | i
CCCN(CCC)C(=O)CP(=O)(c1ccccc1)c1ccccc1 | -0.7% | nt | i
CCOC(=O)C(Sc1ncn[nH]1)c1ccccc1 (stereo unspecified) | -4.1% | -1.15 | i
CCc1ccc2oc(C(=O)NCc3ccncc3)c(C)c2c1 | 0.5% | nt | i
CC12CN3CC(C)(CN(C1)C3c1ccccc1Cl)C2O (stereo unspecified) | 1.8% | 0.7 | i
Cc1ccc(-n2cc(-c3ccccc3)[nH]c2=O)cc1F | 8.7% | -1.3 | i
O=c1[nH]c(=O)n(Cc2ccccc2)c2c1CCC2 | 5.0% | 1.2 | i

# Next results
SMILES | Hsc70 | WNV protease inh | MT1-MMP reporter
c1csc(C(c2nnnn2C2CCCC2)N2CCCC3(CCCCC3)C2)c1 (stereo unspecified) | -2.2% | nt | i
CC1(C)N=C(c2cccc(F)c2)C(=O)N1 | -7.1% | 0.11 | i
O=c1oc2cc(OCc3nn[nH]n3)ccc2c2c1CCCC2 | 5.2% | 0.25 | i
Cn1c(=O)c2[nH]c(NCC3CCCO3)nc2n(-c2ccccc2)c1=O (stereo unspecified) | -2.2% | -0.17 | i
CCCn1c(=S)[nH]c2cc(C(=O)N3CCN(c4ccccc4OC)CC3)ccc2c1=O | 2.2% | -0.66 | i
CC(C)(C)c1ccc(S(=O)(=O)N2CCC(c3nc4ccc(Cl)cc4[nH]3)CC2)cc1 | 4.5% | nt | i
COc1ccc(-c2cc3c(=O)n(CC(=O)NC4CCN(Cc5ccccc5)CC4)ncn3n2)cc1 | -4.3% | 0.1 | i
Cc1cc(C)n2nc(SCc3cc(=O)oc4cc(C)c(C)cc34)nc2n1 | 2.5% | nt | i
COC1=CC(=O)CC(C)C12Oc1c(Cl)c(OC)cc(OC)c1C2=O (stereo unspecified) | -5.7% | 0.5 | i
O=C(c1ccccc1)n1ccc2ccccc21 | 3.2% | -0.95 | i

# (further entries)
SMILES | Hsc70 | WNV protease inh | MT1-MMP reporter
COc1ccc(N2C(N)=NC(N)=NC23CCCC3)cc1 | 5.1% | -0.46 | i
Cc1ccc(C(=O)OCC(=O)N2CCc3ccccc32)cc1 | 1.7% | nt | i
CCN1C(=O)c2cccc3c(NC(=O)C(C)(C)C)ccc1c23 | -1.4% | -1.42 | i
CCCCOc1ccc(N2C(=O)CC(N(O)c3ccccc3)C2=O)cc1 (stereo unspecified) | -6.6% | 0.18 | i
CC(Oc1ccc(Cl)cc1Cl)C(=O)Nc1cccnc1 (stereo unspecified) | -0.4% | nt | i
CCCC(=O)Nc1cc(-c2cn3cccnc3n2)ccc1OC | 2.6% | -0.15 | i
Cn1c(=O)c2nnn(/N=C(\c3ccccc3)C3CC3)c2n(C)c1=O | -5.4% | -0.8 | i
CCOC(=O)Cc1csc(NC(=O)c2ccc(Cl)nc2)n1 | -6.1% | nt | i
O=C(NCCN1CCCC1)c1cc(-c2ccncc2)nc2ccc(S(=O)(=O)N3CCOCC3)cc12 | 2.6% | -1.35 | i
CN(CC(=O)O/N=C(\N)c1ccc([N+](=O)[O-])cc1)S(=O)(=O)c1ccccc1 | -4.2% | nt | i
CC1SC(c2ccc(Cl)cc2Cl)NC1=O (stereo unspecified) | 0.7% | nt | i
